Mtb betalactam: beta-lactam sensitization of Mtb H37Rv, H37Rv; 330,000 compounds, 0.27% hits; AID 434955, 2010; inhibition, % at 25 µM; M. tuberculosis H37Rv growth with meropenem, percent inhibition; hits of this screen are not shown here;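 active = about 74% or more and at least 40 points above the plate without the antibiotic, then above 30% in a dose series; inconclusive = first-round hits that could not be retested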;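 also: growth measured after seven days incubation then overnight dye step; 0% = bacteria only wells and 100% = bacteria with antibiotic; twin plates without the antibiotic show which effects depend on it; some results filed as inactive read as strong as hits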
Starred values were filed as active, the others as inactive; ? = inconclusive. An excerpt (hit frequency here may not be typical).

molecule,Mtb betalactam
CCOC(=O)[C@H]1[C@H]2COc3ccc(OC)cc3[C@@H]2N2C(=O)c3ccc(C)cc3NC(=O)[C@@]12C,-2.3
COc1ccc(CC(=O)Nc2ccc(F)c(Cl)c2)cc1S(=O)(=O)N1CCOCC1,2.0
Cc1ccsc1C(=O)OCC(=O)NC1CCCC1,5.0
Cc1cccc(C)c1N(CC(=O)NCc1ccccc1)C(=O)c1csnn1,3.5
O=C(CN1C(=O)NC2(CCCc3ccccc32)C1=O)c1ccc(F)c(F)c1 (centres undefined),-2.6
Nc1cc(Cl)ccc1C(=O)OCC(=O)N1CCCCCC1,4.7
O=C(COC(=O)CCC(=O)c1ccc(Cl)cc1)NCc1ccc(F)cc1,-0.9
CC(=O)c1ccc(S(=O)(=O)NCC(=O)NC(c2nc3ccccc3[nH]2)C(C)C)cc1 (centres undefined),1.1
C=CC[C@@H](CC(=O)N[C@@H](CO)Cc1ccccc1)C(=O)N[C@H](COC(=O)[C@@H](CC=C)Cc1ccc(F)cc1)Cc1ccccc1,-2.5
O=C(c1cccc(S(=O)(=O)N2CCN(c3ccc(F)cc3)CC2)c1)N1CCCC1,-9.3
O=C(OCC(=O)N1CCC(Cc2ccccc2)CC1)c1ccc(CO)cc1,-5.1
COc1ccc(S(=O)(=O)N2CCOCC2)cc1C(=O)N(C)Cc1ccccc1F,0.2
Cc1ccc(C)c(NC(=O)COC(=O)CCNC(=O)c2ccco2)c1,-1.2
O=S(=O)(Nc1nc2ccccc2nc1Cl)c1cccc(C(F)(F)F)c1,-0.2
CC(C)n1cnc2c(NCc3ccccc3)cc(Cc3ccc(F)cc3)cc21,98.8
Cc1cc(C)c(C)c(S(=O)(=O)N[C@@H](C)C(=O)OCC(=O)NC2CCCC(C)C2C)c1C (some centres undefined),5.2
Cc1nnc(-c2ccc(N3CCOCC3)c([N+](=O)[O-])c2)o1,0.3
Cc1ccc(S(=O)(=O)N[C@@H](C)C(=O)OCC(=O)N2c3ccccc3NC(=O)C2(C)C)cc1,5.5
COc1ccc(Cl)cc1NC(=O)CN(C)C(=O)c1sccc1-c1ccccc1,4.5
N=c1c(C(=O)NCC2CCCO2)cc2c(=O)n3ccccc3nc2n1Cc1ccco1 (centres undefined),0.6
C[C@]12C(=O)N(c3ccc(C(F)(F)F)cc3)C(=O)N1[C@H]1c3ccccc3OC[C@@H]1[C@H]2c1ccccc1,-1.4
CC(Sc1ncccn1)C(=O)NC1(C#N)CCCCC1 (centres undefined),-9.9
COc1ccc(NC(=O)CN2C(=O)NC(C)(C3CC3)C2=O)c(OC)c1 (centres undefined),-3.8
CCN1CCN(C(=O)C(C)Oc2ccc(S(=O)(=O)N3CCCC3)cc2C(N)=O)CC1 (centres undefined),3.6
Cc1ccc(CC(=O)Nc2ccc(S(=O)(=O)N3CCOCC3)cc2)cc1C,2.3
O=C(CCNC(=O)c1ccccc1Cl)NCc1ccco1,-0.8
CCN(CC)S(=O)(=O)c1ccc(N2CCOCC2)c(NS(=O)(=O)c2cccs2)c1,-4.3
CCCCCN1C(=O)/C(=C/c2c(N3CCc4ccccc4C3)nc3ccccn3c2=O)SC1=S,39.8
Cc1cccc(C)c1NC(=O)COC(=O)[C@@H]1CCCN1C(=O)c1cccs1,-4.3
NC(=O)C1CCCN(CC(=O)Nc2cc(S(=O)(=O)N3CCOCC3)ccc2N2CCCC2)C1 (centres undefined),-4.6
C=CC[C@H](CC(=O)N(CCO)Cc1ccccc1)C(=O)N[C@@H](C)COC(=O)[C@H](CC=C)CC(=O)OC(C)(C)C,1.7
COc1ccc(NC(=O)C2C3C=CC4(O3)C2C(=O)N(CCN2CCCCC2C)C4C(=O)NC2CCCCC2)cc1 (centres undefined),-3.9
C[C@H](CO)N1C[C@H](C)[C@@H](CN(C)Cc2ccc(-c3ccccc3)cc2)Oc2c(NC(=O)Cc3ccccc3)cccc2C1=O,9.1
Cc1ccc(C2(C)NC(=O)N(CC(=O)N(c3ccccc3)C3CCS(=O)(=O)C3)C2=O)cc1 (centres undefined),2.3
NS(=O)(=O)c1ccc(CCNC(=O)COC(=O)COc2cccc(C(F)(F)F)c2)cc1,4.1
O=C(Cc1ccccc1)Nc1ccc(C(=O)NCc2ccccc2)cc1,-5.8
Cc1cc(C)c(S(=O)(=O)N2CCN(C(=O)CCn3nc(C)c(C)c3C)CC2)c(C)c1,3.8
COc1cccc(CNC(C)C(=O)Nc2ccc(S(=O)(=O)N3CCCC3)cc2)c1 (centres undefined),-6.0
COc1ccc(S(=O)(=O)N2CCC(C(=O)NC3CC3)CC2)cc1C,-1.7
CCOCc1c(C(=O)OCC(=O)NCc2ccc(F)cc2)oc2ccccc12,4.5
CSCCC(NC(=O)c1ccco1)C(=O)NCC(c1ccccc1)N(C)C (centres undefined),1.5
Cc1ccccc1NC(=O)Cc1nc(COC(=O)Cc2ccccc2F)cs1,-10.0
CN(C)C(CNS(=O)(=O)c1ccc(Cl)cc1F)c1ccco1 (centres undefined),0.3
COc1ccc(CC(=O)OCCc2cc3cc(OC)c(OC)cc3c(=O)o2)cc1,1.5
COC1CCN(C(=O)C2CCC(=O)N(CCc3cccc(F)c3)C2)CC1 (centres undefined),?
CC(C)(C)OC(=O)C[C@H]1C/C=C\C[C@@H](CC(=O)NCCO)C(=O)NC[C@H](c2ccccc2)OC1=O,1.8
CNC[C@@H]1Oc2ccc(NC(=O)Nc3ccccc3)cc2C(=O)N([C@@H](C)CO)C[C@H]1C,-5.3
CC(C)CC1NC(=O)N(CC(=O)N(C)C2CCCCC2)C1=O (centres undefined),-1.3
CC(NC(=O)C(C)N1CCN(S(=O)(=O)c2ccccc2)CC1)c1ccccc1 (centres undefined),-5.5
Cc1ccc(C(=O)OCc2cc(=O)n3ccsc3n2)s1,-8.0
CC/C=C(/NC(C)=O)c1ccccc1,4.3
O=C(NCC(=O)N1CCCCCCC1)c1ccco1,0.8
CCOc1cc(-c2sc(Nc3ccc(CC)cc3)n[n+]2-c2ccccc2)ccc1OC,89.1
CCCCN1CCNC[C@@H]1c1ccccc1,-5.3
O=C1c2ccc(Cl)cc2S(=O)(=O)c2cccc(C(=O)N3CCN(c4ncc(Br)cn4)CC3)c21,20.5
Cc1ccnc2nc(C(=O)OCC(=O)c3ccc(NC(=O)CC(C)C)cc3)nn12,0.1
COc1ccc(C(CNC(=O)c2cccc(S(=O)(=O)N3CCOCC3)c2)N2CCCC2)cc1 (centres undefined),-0.4
Cc1ccnc2nc(C(=O)OCC(=O)N(Cc3ccccc3)C(C)C)nn12,-6.5
COc1ccc(-c2oc(=O)c3cc(OC)c(OC)cc3c2/C=C/c2ccc(OC(C)=O)cc2)cc1,-8.3
Cc1ccc2c(c1)C1C[N+](C)(CC(=O)c3ccccc3)CCC1N2C(=O)c1ccccc1Cl (centres undefined),-2.4

(list continues)
molecule,Mtb betalactam
CCOc1ccc(NS(=O)(=O)c2cc(C(=O)NCCCN3CCCC3=O)ccc2C)cc1,-10.7
COc1ccc(C(=O)OCC(=O)NC(=O)Nc2ccccc2F)c(OC)c1,-4.1
COc1ccc(NC(=O)Nc2ccc3c(c2)CC(=O)N([C@H](C)CO)C[C@H](C)[C@H](CN(C)Cc2ccc(C(=O)O)cc2)O3)cc1,-3.3
COc1ccc(NC(C)=O)cc1S(=O)(=O)N1CCN(Cc2cccs2)CC1,-3.0
CCN(CC)S(=O)(=O)c1ccc(N2CCCC2)c(NC(=O)c2ccc([N+](=O)[O-])o2)c1,99.7
COc1cc(C(=O)NNC(=O)CN2C(=O)NC(C)(c3ccc(C)cc3)C2=O)cc(OC)c1OC (centres undefined),-5.6
O=C(NCC1CCCO1)c1cc2c([nH]c3ccccc32)c(-c2ccc(F)cc2)n1 (centres undefined),-3.2
O=C(COC(=O)COc1ccccc1F)NCCc1ccc(F)cc1,-2.7
COc1ccc(-c2c(-c3cc(OC)cc(OC)c3)sc3ccc(OC)cc23)cc1,4.9
CC(C)NC(=O)Nc1cccc2c1O[C@H](CN(C)S(C)(=O)=O)[C@@H](C)CN([C@H](C)CO)C2=O,-0.5
COc1ccccc1CCNC(=O)c1ccc(NC(=O)CC2SC(N3CCCCC3)=NC2=O)cc1 (centres undefined),-0.3
O=C(c1cc(F)c(F)c(F)c1F)N1CCN(C(=O)C2CCCO2)CC1 (centres undefined),-4.6
O=C(CNS(=O)(=O)c1ccccc1)OCC(=O)c1c[nH]c2ccccc12,3.0
Cc1cc(C(=O)NNCc2ccccc2)no1,2.2
CC(C)C(NC(=O)c1c(F)cccc1F)C(=O)N1CCN(c2ncccn2)CC1 (centres undefined),-2.1

Shown field by field: part of the list above
SMILES: Cc1cc(C(=O)NNCc2ccccc2)no1
  Mtb betalactam: 2.2

SMILES: CCN(CC)S(=O)(=O)c1ccc(N2CCCC2)c(NC(=O)c2ccc([N+](=O)[O-])o2)c1
  Mtb betalactam: 99.7

SMILES: C=CC[C@@H](CC(=O)N[C@@H](CO)Cc1ccccc1)C(=O)N[C@H](COC(=O)[C@@H](CC=C)Cc1ccc(F)cc1)Cc1ccccc1
  Mtb betalactam: -2.5

SMILES: Cc1ccnc2nc(C(=O)OCC(=O)N(Cc3ccccc3)C(C)C)nn12
  Mtb betalactam: -6.5

The results go on:
molecule,Mtb betalactam
COCCCNC(=O)CC1C[C@H](C(=O)N(C(C)C)C(C)C)[C@@]2(C)c3[nH]c4ccccc4c3CCN2C1=O (some centres undefined),-5.3
O=C(NCc1ccc(F)cc1)c1cccc2c1C(=O)c1ccc(N3CCOCC3)cc1S2(=O)=O,3.2
CCCCNC(=O)N(O)C1N(/N=C/c2ccco2)C(=S)SC1(C)C (centres undefined),-0.4
O=C(CN1CCN(c2ccc(O)cc2)CC1)NCC(=O)Nc1ccc(F)c(F)c1F,6.7
CCOC(=O)c1ccc(S(=O)(=O)N2CCN(CCc3ccncc3)CC2)cc1,-4.8
O=C(C[C@H]1C/C=C\CC[C@H](Cc2ccc(F)cc2)C(=O)OC[C@H]2CCCN2C1=O)N[C@H](CO)Cc1ccccc1,-6.1
O=C(CCNS(=O)(=O)c1cccs1)N1CCN(c2cccc(C(F)(F)F)c2)CC1,0.0
CN(CC(=O)Nc1cc(S(=O)(=O)N2CCCCCC2)ccc1Cl)Cc1ccc2c(c1)OCO2,-6.4
CCCCN(C(=O)CC1CCCCC1)c1c(N)n(CC(C)C)c(=O)[nH]c1=O,4.2
COC(=O)[C@]1(Cc2ccccc2)N[C@H](CN(C)C(=O)Nc2ccc(F)cc2)[C@@H]2C(=O)N(Cc3ccccc3)C(=O)[C@@H]21,3.2
COCCC(C(=O)Oc1c(C(C)(C)C)cc(C)cc1C(C)(C)C)c1ccccc1 (centres undefined),7.2
Cc1ccc(SCCC(=O)N2CCN(S(=O)(=O)c3ccccc3)CC2)cc1,3.6
CCOCc1c(C(=O)N2CCN(Cc3ccc(Br)s3)CC2)oc2ccccc12,-7.9
Cn1c(CC(=O)NNC(=O)c2ccc(Cl)nc2)nc2ccccc21,-4.9
COC(=O)C1CC(O)CN1S(=O)(=O)c1ccc2ccccc2c1 (centres undefined),-2.8

Three structures already listed, arranged by SMILES length, rising:
molecule,Mtb betalactam
COC(=O)C1CC(O)CN1S(=O)(=O)c1ccc2ccccc2c1 (centres undefined),-2.8
Cc1ccc(SCCC(=O)N2CCN(S(=O)(=O)c3ccccc3)CC2)cc1,3.6
O=C(CCNS(=O)(=O)c1cccs1)N1CCN(c2cccc(C(F)(F)F)c2)CC1,0.0

(list continues)
molecule,Mtb betalactam
CCN(C[C@H]1N[C@@](Cc2ccccc2)(C(=O)OC)[C@H]2C(=O)N(Cc3ccccc3)C(=O)[C@@H]12)S(=O)(=O)c1ccc(C(F)(F)F)cc1,6.2
CN(CC(=O)Nc1cccc(F)c1)C(=O)c1cn(-c2ccccc2)nc1-c1ccc(Cl)cc1,99.6
Cc1ccc(C(=O)COC(=O)c2ccc(Cl)c(N)c2)s1,1.0
CCOc1cc(C(=O)N(C)CC(=O)Nc2cccc3ccccc23)ccc1OC,2.5
COc1ccccc1C(=O)N(C)CC(=O)Nc1ccc(N2CCOCC2)cc1,-4.0
CO[C@@]1(NC(=O)C2SC(=C(C(N)=O)C(=O)O)S2)C(=O)N2C(C(=O)O)=C(CSc3nnnn3C)CS[C@@H]21 (some centres undefined),-0.3
Cc1c(NS(=O)(=O)c2cccc(C(=O)N3CCCC3)c2)c(=O)n(-c2ccccc2)n1C,0.8
COc1ccc(Cl)cc1NC(=O)CN(C)CC(=O)NCc1ccc(F)cc1,-1.7
CN1CC(=O)N(CC(=O)Nc2ccc(N3CCOCC3)cc2)C1=O,62.8
CN(CC(=O)Nc1cccc(F)c1)C(=O)CN1c2cccc3cccc(c23)S1(=O)=O,-5.7
COc1ccc(C(=O)N2CCN(c3ncccn3)CC2)cc1S(=O)(=O)N1CCOCC1,-3.8
COc1cc(/C=C(\C#N)C(=O)c2ccc(O)c(O)c2)cc(I)c1O,9.6
C[C@@H]1COC(=O)[C@H](Cc2ccc(F)cc2)CC/C=C/C[C@@H](CC(=O)N[C@H](CO)Cc2ccccc2)C(=O)N1,1.2
Cc1cccc(C(=O)OCC(=O)N2CCCCCC2)c1C,0.9
COc1cccc(-c2ncc3ccccc3c2COC(=O)CCCC(=O)O)c1,-4.0
Cc1cnc(C(=O)OCC(=O)N(Cc2ccccc2)C(C)(C)C)cn1,-8.5
Cc1ccccc1NC(=O)CSc1nnc(C)c2ccccc12,-1.6
C=CCC[C@H](Cc1ccc(F)cc1)C(=O)OC[C@@H](Cc1c[nH]c2ccccc12)NC(=O)[C@H](CC=C)CC(=O)N(CCO)Cc1ccccc1,-7.7
CCN(C[C@H]1N[C@@](C)(C(=O)OC)[C@H]2C(=O)N(Cc3ccccc3)C(=O)[C@@H]12)C(=O)Nc1ccc(OC)cc1,2.8

Screening data from PubChem BioAssay.
